Compound activity as filed in PubChem.
UUG fidelity = yeast start codon fidelity modulation | AID 602363 | activity score, % at 18.7 µM | S. cerevisiae UUG-firefly luciferase reporter, luminescence/redox ratio | hit rate 0.13% among 350,000;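 active = replicate mean at a twofold rise or more, about +100% in these data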;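 also: firefly luciferase made from a UUG start codon reports start codon fidelity; reporter light over untreated wells divided by growth signal over untreated wells; some hits fall short of that in this replicate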
* = called active by the depositor. A portion of the library. The share of hits here may be higher or lower than overall.

SMILES	UUG fidelity
Cc1ccc(S(=O)(=O)N(C)C[C@H]2Oc3ccc(NC(=O)NC4CCCCC4)cc3C(=O)N([C@H](C)CO)C[C@@H]2C)cc1	-0.6
COc1ccc(C#Cc2ccc([C@@H]3[C@@H](CO)N4CCCCN(C(=O)Nc5ccccc5F)C[C@H]34)cc2)cc1	-2.5
OC[C@@H]1[C@H](c2ccccc2)[C@@H](CNCC2CCC2)N1CC1CC1	12.0
CO[C@@H]1CN(C)C(=O)c2ccc(NC(=O)C3CC3)cc2OC[C@@H](C)N(C(=O)CN2CCOCC2)C[C@@H]1C	-2.1
CCC(=O)N1C[C@@H](C)[C@@H](OC)CN(C)C(=O)c2cc(NC(=O)NC(C)C)ccc2OC[C@@H]1C	0.9
CCS(=O)(=O)N1CCCCN2[C@H](CO)[C@@H](c3ccc(-c4ccccc4)cc3)[C@@H]2C1	-10.0
COCC#Cc1ccc([C@H]2[C@H]3CN(C(=O)NC4CCCC4)CCCCN3[C@H]2CO)cc1	13.8
O=C(C[C@@H]1CC[C@H]2[C@@H](COC[C@H](O)CN2C(=O)Nc2ccc(F)cc2)O1)NCCc1ccncc1	-23.4
CO[C@@H]1CN(C)C(=O)c2ccc(NC(=O)C3CC3)cc2OC[C@H](C)N(C)C[C@H]1C	-1.7
CC(=O)Nc1ccc2c(c1)C(=O)N(C)[C@@H]1CC[C@H](CC(=O)NCc3ccc(Cl)cc3)O[C@@H]1CO2	10.8
CN1c2ccc(Br)cc2[C@@H]2[C@@H](CCN2S(=O)(=O)c2ccccc2F)[C@H]1CO	-9.7
C[C@H]1CN([C@@H](C)CO)C(=O)Cc2cc(NC(=O)CCCN(C)C)ccc2O[C@H]1CN(C)S(=O)(=O)c1ccc(Cl)cc1	13.1
CO[C@@H]1CN(C)C(=O)c2cc(NS(=O)(=O)c3ccc(C)cc3)ccc2OC[C@@H](C)N(Cc2ccccn2)C[C@H]1C	-5.9
C/C=C/c1ccc([C@H]2[C@@H](CO)N3CCCCN(S(=O)(=O)c4cccs4)C[C@@H]23)cc1	4.4
COCC(=O)N1C[C@H]2[C@@H](c3ccccc31)[C@H](CO)N2C(=O)C1CC1	-7.9
Cc1ccc(S(=O)(=O)N2C[C@@H](O)COC[C@H]3O[C@H](CC(=O)NCC4CCCCC4)CC[C@@H]32)cc1	40.9
Cc1ccccc1S(=O)(=O)N(C)C[C@@H]1OCc2ccccc2-c2c(n(C)c3ccccc23)C(=O)N([C@@H](C)CO)C[C@H]1C	-9.1
CC(C)C#Cc1ccc([C@@H]2[C@@H](CO)N3CCCCN(C(=O)NC(C)C)C[C@@H]23)cc1	0.6
Cc1cccc(S(=O)(=O)N2CCCCN3[C@@H](CO)[C@@H](c4ccc(C#CC(C)C)cc4)[C@@H]3C2)c1	-1.3
C[C@@H]1CN([C@@H](C)CO)C(=O)Cc2cc(NC(=O)CCN3CCOCC3)ccc2O[C@H]1CN(C)C(=O)Nc1ccccc1	6.2
COc1ccccc1NC(=O)N1C[C@@H]2[C@H](c3ccccc31)[C@@H](CO)N2C(=O)C1CC1	95.7
C[C@@H]1CN([C@H](C)CO)C(=O)c2cc(NC(=O)Nc3ccccc3)ccc2O[C@H]1CN(C)C(=O)Nc1ccc(F)cc1	-9.8
OC[C@@H]1[C@@H](c2ccc(-c3ccccc3)cc2)[C@@H]2CN(CCC(F)(F)F)CCCCN12	-6.8
CCCNC(=O)C[C@H]1CC[C@@H]2[C@H](COC[C@@H](O)CN2C(=O)Nc2ccccc2OC)O1	6.0
COc1ccc(CN(C)C[C@@H]2Oc3ccc(NC(=O)NC4CCCCC4)cc3C(=O)N([C@@H](C)CO)C[C@@H]2C)cc1	-0.6

The listing continues.
SMILES	UUG fidelity
C[C@H]1CN([C@@H](C)CO)C(=O)c2cccc(NC(=O)C3CCCCC3)c2O[C@H]1CN(C)S(=O)(=O)c1ccc(F)cc1	20.7
O=C(Nc1ccc(F)cc1)N1CCCCN2[C@H](CO)[C@H](c3ccc(C4=CCCCC4)cc3)[C@@H]2C1	8.4
Cc1ccc(-c2ccc([C@H]3[C@H]4CN(C(=O)Nc5cccc(F)c5)CCCCN4[C@H]3CO)cc2)cc1	10.2
C[C@H]1CN([C@@H](C)CO)C(=O)c2cc(NC(=O)Cn3cnnn3)ccc2O[C@@H]1CN(C)C(=O)NC1CCCCC1	-0.2
CN1c2ccc(-c3ccc(C#N)cc3)cc2[C@@H]2[C@@H](CCN2S(=O)(=O)c2cccc(F)c2)[C@H]1CO	9.3
C[C@H]1CN([C@@H](C)CO)C(=O)CCCn2nncc2CO[C@@H]1CN(C)C(=O)CCC(F)(F)F	-8.5
COCC(=O)Nc1ccc2c(c1)C(=O)N(C)C[C@@H](OC)[C@H](C)CN(C(=O)Cc1ccccn1)[C@H](C)CO2	5.6
Cc1noc(C)c1NC(=O)Nc1cccc2c1O[C@H](CN(C)Cc1ccc(C(=O)O)cc1)[C@@H](C)CN([C@H](C)CO)C2=O	-14.5
C[C@@H]1CN([C@@H](C)CO)C(=O)c2ccccc2-c2ccccc2CO[C@@H]1CN(C)S(=O)(=O)c1ccccc1	9.9
O=C(NCc1ccc(F)cc1)[C@H]1[C@H](CO)[C@H]2Cn3c(cccc3=O)[C@@H]1N2CC1CC1	-15.0
O=C(C[C@@H]1CC[C@H]2[C@@H](COC[C@@H](O)CN2S(=O)(=O)c2ccc(F)cc2)O1)NCc1ccc(Cl)c(Cl)c1	-4.9
C[C@@H]1CN([C@@H](C)CO)C(=O)Cc2cc(NS(=O)(=O)c3ccc(Cl)cc3)ccc2O[C@H]1CN(C)Cc1ccncc1	10.9
O=C(c1ccc2c(c1)OCO2)N1C[C@@H]2[C@H](c3ccccc31)[C@H](CO)N2Cc1ccc2c(c1)OCO2	11.3
CC(C)C(=O)Nc1ccc2c(c1)C(=O)N(C)[C@@H]1CC[C@@H](CC(=O)NC3CCCC3)O[C@H]1CO2	3.0
N#Cc1ccc(-c2ccc3c(c2)[C@H]2[C@H](CCN2C(=O)CN2CCOCC2)[C@H](CO)N3)cc1	-14.1
C[C@H]1CN([C@@H](C)CO)C(=O)c2cccc(N(C)C)c2O[C@@H]1CN(C)C(=O)Nc1ccccc1	-10.8
C[C@H]1CN([C@@H](C)CO)C(=O)c2cc(NC(=O)NC3CCCCC3)ccc2O[C@H]1CN(C)S(=O)(=O)c1ccccc1	-3.9
C[C@@H]1CN([C@H](C)CO)C(=O)c2ccccc2-c2ccccc2CO[C@@H]1CN(C)C(=O)c1ccccc1	14.4
COc1ccc(C(=O)Nc2ccc3c(c2)OC[C@H](C)N(C(C)=O)C[C@H](C)[C@@H](OC)CN(C)C3=O)cc1	9.8
CCCNC(=O)N1C[C@H]2[C@@H](c3ccccc31)[C@H](CO)N2C(=O)Nc1ccccc1	3.5
CCCNC(=O)NC[C@H]1[C@@H](c2ccc(C3=CCCCC3)cc2)[C@@H](CO)N1C(C)=O	-3.9
CCC(=O)N1CC[C@@H]2[C@H](CO)Nc3ccc(C#Cc4ccc(OC)cc4)cc3[C@@H]21	-23.6
CO[C@@H]1CN(C)C(=O)c2cc(NS(=O)(=O)c3cccc(F)c3)ccc2OC[C@H](C)N(Cc2cc(F)ccc2F)C[C@H]1C	7.0
C[C@@H]1CN([C@@H](C)CO)C(=O)Cc2cc(NS(=O)(=O)c3ccccc3)ccc2O[C@H]1CN(C)Cc1ccc2c(c1)OCO2	-11.2
CN(C)C(=O)c1cccc(-c2ccc([C@H]3[C@@H](CO)N4CCCCN(S(C)(=O)=O)C[C@@H]34)cc2)c1	-0.7

In another format: results already given.
Molecule: COCC(=O)Nc1ccc2c(c1)C(=O)N(C)C[C@@H](OC)[C@H](C)CN(C(=O)Cc1ccccn1)[C@H](C)CO2
  UUG fidelity: 5.6

Molecule: N#Cc1ccc(-c2ccc3c(c2)[C@H]2[C@H](CCN2C(=O)CN2CCOCC2)[C@H](CO)N3)cc1
  UUG fidelity: -14.1

Molecule: CC(C)C(=O)Nc1ccc2c(c1)C(=O)N(C)[C@@H]1CC[C@@H](CC(=O)NC3CCCC3)O[C@H]1CO2
  UUG fidelity: 3.0

Molecule: C[C@H]1CN([C@@H](C)CO)C(=O)c2cc(NC(=O)NC3CCCCC3)ccc2O[C@H]1CN(C)S(=O)(=O)c1ccccc1
  UUG fidelity: -3.9

Further records.
SMILES	UUG fidelity
COc1cccc(-c2ccc3c(c2)[C@H]2[C@H](CCN2S(=O)(=O)c2ccccc2OC)[C@@H](CO)N3)c1	-2.3
CCS(=O)(=O)N1CCCCN2[C@H](C1)[C@H](c1ccc(-c3ccccc3C)cc1)[C@@H]2CO	2.1
C[C@@H]1CN([C@@H](C)CO)C(=O)c2cc(NS(=O)(=O)c3ccc(Cl)cc3)ccc2O[C@H]1CN(C)Cc1ccc(C(=O)Nc2ccccc2N)cc1	-1.9
O=C(NC1CCC1)[C@H]1[C@H](CO)[C@H]2Cn3c(ccc(-c4ccccc4)c3=O)[C@H]2N1Cc1ccccn1	-4.3
COc1ccc(NC(=O)N(C)C[C@H]2Oc3ccc(NC(=O)Nc4ccc5c(c4)OCO5)cc3C(=O)N([C@H](C)CO)C[C@H]2C)cc1	9.9
CCC(=O)Nc1ccc2c(c1)OC[C@@H](C)N(CC1CC1)C[C@@H](C)[C@@H](OC)CN(C)C2=O	-8.5
C[C@@H]1CN([C@@H](C)CO)C(=O)c2cc(N(C)C)ccc2O[C@H]1CN(C)Cc1ccc(-c2ccccc2)cc1	-6.6
C[C@H]1CN([C@@H](C)CO)C(=O)c2cccc(NS(=O)(=O)c3cccs3)c2O[C@H]1CN(C)C(=O)Nc1ccc2c(c1)OCO2	6.4
C[C@@H]1CN([C@@H](C)CO)C(=O)c2cc(NC(=O)CCCN(C)C)ccc2O[C@H]1CN(C)Cc1ccc(-c2ccccc2)cc1	-11.7
C[C@H](CO)N1C[C@H](C)[C@@H](CN(C)S(=O)(=O)c2ccc(F)cc2)Oc2ccc(N(C)C)cc2CC1=O	4.7
COc1ccc(S(=O)(=O)N(C)C[C@H]2Oc3ccc(NC(=O)Cc4cn(C)c5ccccc45)cc3C(=O)N([C@@H](C)CO)C[C@H]2C)cc1	-7.7
CO[C@@H]1CN(C)C(=O)c2ccc(NC(=O)C3CCC3)cc2OC[C@@H](C)N(Cc2nccs2)C[C@H]1C	5.2
Cc1ccc(S(=O)(=O)N2CC[C@@H]3[C@H](CO)Nc4ccc(-c5ccccc5F)cc4[C@@H]32)cc1	7.3
COc1ccc(CNC(=O)C[C@H]2C[C@H]3c4cc(N(C)C)ccc4O[C@H]3[C@H](CO)O2)cc1	-9.7
CCC(=O)Nc1ccc2c(c1)C(=O)N(C)C[C@@H](OC)[C@H](C)CN(Cc1ccccc1F)[C@H](C)CO2	-15.4
C[C@H]1CN([C@@H](C)CO)C(=O)CCCn2cc(nn2)CO[C@@H]1CN(C)Cc1cccc(C(=O)O)c1	4.0
O=C(c1ccccn1)N1CC[C@@H]2[C@H]1c1cc(Br)ccc1N[C@@H]2CO	-19.8
CN1c2ccc(-c3cccc(C#N)c3)cc2[C@H]2[C@H](CCN2C(=O)NC2CCCCC2)[C@H]1CO	-10.3
CCC(=O)Nc1ccc2c(c1)C(=O)N(C)C[C@H](OC)[C@@H](C)CN(C(=O)C1CC1)[C@@H](C)CO2	-6.8
CCCN1[C@H](C(=O)N[C@@H](C)c2ccccc2)[C@@H](CO)[C@@H]2Cn3c(ccc(-c4ccccc4)c3=O)[C@@H]21	17.8
CO[C@H]1CN(C)C(=O)c2ccc(NC(=O)C3CC3)cc2OC[C@H](C)N(C(=O)c2ccccc2)C[C@@H]1C	30.4
Cn1cnc(CCNC(=O)C[C@@H]2CC[C@@H]3[C@H](COC[C@@H](O)CN3C(=O)Nc3ccc(Cl)cc3)O2)c1	-5.2
CNC[C@@H]1Oc2ccc(NC(=O)Cn3cnnn3)cc2C(=O)N([C@H](C)CO)C[C@H]1C	-23.3
O=C(Nc1cccc(F)c1)N1CCCCN2[C@H](C1)[C@H](c1ccc(-c3ccccc3F)cc1)[C@@H]2CO	-0.6
COc1ccc(CN2[C@H](CO)[C@H]3c4ccccc4N(C(=O)Nc4ccc(F)cc4)C[C@H]32)cc1	16.3

Next part:
SMILES	UUG fidelity
CN(C)C(=O)c1cccc(-c2ccc([C@@H]3[C@@H](CO)N4CCCCN(C(=O)C5CCC5)C[C@@H]34)cc2)c1	-11.2
C[C@@H](O)C#Cc1ccc([C@@H]2[C@@H](CO)N3CCCCN(S(=O)(=O)c4ccccc4)C[C@@H]23)cc1	17.6
OC[C@H]1[C@H](c2ccc(C#Cc3ccccc3)cc2)[C@H]2CN(CC3CCOCC3)CCCCN21	5.2
Cc1cccc(S(=O)(=O)N2C[C@@H](O)COC[C@H]3O[C@H](CC(=O)N4CCN(C)CC4)CC[C@@H]32)c1	-7.8
Cc1noc(C)c1S(=O)(=O)Nc1ccc2c(c1)C(=O)N([C@@H](C)CO)C[C@H](C)[C@@H](CN(C)Cc1ccc(Oc3ccccc3)cc1)O2	5.0
COc1cccc(C(=O)N2C[C@@H]3[C@H](c4ccccc42)[C@H](CO)N3C(=O)c2cccc(F)c2)c1	15.4
C[C@H](CO)N1C[C@H](C)[C@H](CN(C)S(=O)(=O)c2ccc(Cl)cc2)Oc2c(NC(=O)Nc3ccc(C(F)(F)F)cc3)cccc2C1=O	-14.9
N#Cc1ccc(-c2ccc3c(c2)[C@H]2[C@H](CCN2C(=O)c2cccnc2)[C@@H](CO)N3)cc1	-11.5
O=C(C[C@@H]1CC[C@@H]2[C@H](COC[C@H](O)CN2S(=O)(=O)c2ccccc2)O1)NCC1CCCCC1	14.2

Quoted from the listing:
UUG fidelity result of Cc1cccc(S(=O)(=O)N2C[C@@H](O)COC[C@H]3O[C@H](CC(=O)N4CCN(C)CC4)CC[C@@H]32)c1 → -7.8
UUG fidelity result of N#Cc1ccc(-c2ccc3c(c2)[C@H]2[C@H](CCN2C(=O)c2cccnc2)[C@@H](CO)N3)cc1 → -11.5
